HPGD inh = HPGD (human) dehydrogenase inhibition; purified HPGD, NADH fluorescence kinetic, PGE2 substrate; Potency, µM, for the others: top-dose activity change, negative = inhibition, usual class: inhibitors; 150,000 compounds, 4.3% hits; AID 894; active = well fitted inhibition curve with a large enough effect (not every such curve was filed as active); inconclusive = small, poorly fitted or top-dose-only effect, or another doubt; inactive = no such curve, though single readings can be large or run the other way;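 further: top concentration of the series not given in the record; plate controls included wells without enzyme; inactives centre near -10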
Target sequence (P15428 whole entry, looked up): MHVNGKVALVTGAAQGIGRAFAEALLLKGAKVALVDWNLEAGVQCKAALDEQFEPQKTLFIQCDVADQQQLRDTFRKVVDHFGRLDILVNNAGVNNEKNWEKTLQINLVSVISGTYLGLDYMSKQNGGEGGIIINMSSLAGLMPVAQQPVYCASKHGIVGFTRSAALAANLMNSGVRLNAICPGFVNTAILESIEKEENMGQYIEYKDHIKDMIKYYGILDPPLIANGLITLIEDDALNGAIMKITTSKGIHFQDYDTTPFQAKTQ
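NADH formation kinetics: reaction with 30 uM PGE2 and 1 mM NAD+ (final), 20 nM enzyme, Tris-HCl pH 8 with Tween 20, after 15 min compound preincubation at room temperature. Fluorescence change, last versus first of five reads.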
* marks the source's active call; other numbers are inactive results; ? = inconclusive; & = joins results of further samples. On the % scale 0 is the no-effect control and ±100 the full control effect; potency means the concentration at half of the fitted maximal effect.

SMILES | HPGD inh
CC12CCC(c3c1nc1ccccc1[n+]3[O-])C2(C)C (configuration not stated) | -6%
CC(C)CC(=O)NC1(C(F)(F)F)C(=O)Nc2c1c(=O)n(C)c(=O)n2C (configuration not stated) | -1%
Cc1c(C(=O)NCC2CCCO2)oc2ccc(S(=O)(=O)N3CCCCC3)cc12 (configuration not stated) | -17%
Fc1cccc2sc(Nc3nc4c(F)cccc4s3)nc12 | ?
COc1ccc(C2C(=O)N(C3CCCCC3)CC(=O)N2CC2COc3ccccc3O2)cc1 (configuration not stated) | -10%
COc1cc(OC)cc(C(=O)Nc2ccc3c(c2)COC3=O)c1 | 1%
O=C(NC1CCCc2ccccc21)C(Cc1ccccc1)NS(=O)(=O)c1cccs1 (configuration not stated) | -13%
CC(/C=C1\N=C(SCc2ccccc2Cl)SC1=O)=C\c1ccccc1 | -16%
CCCS(=O)(=O)N1CCCC(c2nc(-c3cccc(OC)c3)no2)C1 (configuration not stated) | -12%
COc1ccc2oc(=O)c(C(=O)NCc3ccc4c(c3)OCO4)cc2c1 | ?
CN(C(=S)NC(=O)c1ccc(Br)o1)c1ccccc1 | -11%
C/C(=N\NS(=O)(=O)c1ccccc1)c1ccc2c(c1)OCCO2 | -7%
CC(C)CCNC(=O)C1CCN(C(=O)N(C)C)CC1 | 0%
Cc1ccc(NC2=C(Cl)C(=O)OC2OC(=O)c2ccco2)cc1 (configuration not stated) | -11%
O=C(O)C1CC(=O)N(Cc2ccc3c(c2)OCO3)C1 (configuration not stated) | ?
CCCCCCNc1cc2n(c(=O)n1)CCc1cc(OC)c(OC)cc1-2 | ?
COc1ccc(NC(=O)Nc2ccc3nc(C)c(C)nc3c2)cc1 | 0%
COCc1cc(C)nc(OCC(=O)N/N=C\c2cc(C)n(-c3cccc(C(F)(F)F)c3)c2C)c1C#N | -29%
O=C(N/N=C/c1ccc([N+](=O)[O-])o1)c1cn(-c2ccccc2)nc1-c1ccccc1 | -1%
COCc1cc(=O)[nH]c(Nc2nc(C)c3ccccc3n2)n1 | -16%
CC1=CC2=NC(=O)/C(=C\c3cccn3CCOc3ccc(C)c(C)c3)C(=N)N2O1 | -11%
CCn1cc([N+](=O)[O-])c(C(=O)N2N=C(c3ccc4ccccc4c3)CC2c2cc(Br)ccc2O)n1 (configuration not stated) | -16%
Cc1nc2ccccc2c(=O)n1NC(=O)C1CCCCC1 | 0%
Cc1ccc(-c2nnn(CC(=O)N(Cc3ccco3)C(C(=O)NC3CCCC3)c3cccs3)n2)o1 (configuration not stated) | -12%
CCSc1nnc(NC(=O)CSc2nnc(CNC(=O)c3ccccc3F)o2)s1 | -17%
COc1ccc(-n2c(C)nc3cc(C(=O)NCc4ccc5c(c4)OCO5)ccc32)cc1 | -19%
Cc1ccc(-c2noc(CCC(=O)NC3CCN(Cc4ccccc4)CC3)n2)cc1 | -3%
CCN(CC)C(=O)CSc1nnc(-c2ccccc2)o1 | -28%
CCOC(=O)N1CCN(C(=O)COc2cccc3c2CCN(Cc2ccccc2F)C3=O)CC1 | -6%
COc1cc2ccccc2cc1C(=O)O | ?
C/C=C(/C(=C/C)c1ccc(O)cc1)c1ccc(O)cc1 | -9%&-13%
Cc1cc(C)c2nc(C(F)(F)F)c(C#N)c(N)c2c1 | -11%
COc1ccc(C(=O)N(Cc2ccccc2)Cc2cc3cc4c(cc3[nH]c2=O)OCCO4)cc1 | ?
N#CC(C(=O)OCc1ccccc1)c1nc2ccccc2nc1N1CCOCC1 (configuration not stated) | -15%
CCC(=O)N(Cc1cc2cc(OC)ccc2[nH]c1=O)c1ccc(C)cc1C | ?
CCOC(=O)c1sc(NC(C)=O)cc1C | -7%
N#CC1=C(SCC(=O)c2ccc(Br)cc2)NC2=C(C(=O)CCC2)C1c1ccco1 (configuration not stated) | -23%
O=C(Nc1cccc(-c2nnc(-c3ccccc3)o2)c1)C1CCCO1 (configuration not stated) | ?
COc1cc2c(cc1OC)CN(C(=O)c1ccc(S(=O)(=O)N3CCCCC3)cc1)CC2 | -3%
O=C(Cc1ccc2cccnc2c1)c1ccc(O)cc1O | -24%
CCCCn1cnc2c(cnn2-c2ccc(Cl)cc2)c1=O | -22%
CCn1c(=O)c2c(cnn2C)c2ccccc21 | 32µM*
O=C(COc1ccc(Cl)cc1Cl)NC(=S)N1CCCc2ccccc21 | 22µM*
CNc1ccc(/C=C/C(=O)c2cccc3ccccc23)cc1[N+](=O)[O-] | -12%
COc1ccc(NC(=O)/C=C/C(=O)O)cc1Cl | -17%
CC1=N/C(=C\c2ccc([N+](=O)[O-])cc2)C(=O)N1c1ccc(Br)c(C)c1 | -7%
Cc1c(/C=N/NC(=O)C(C)(C)Oc2ccc(Cl)cc2)cnn1C | 0%
Cc1ccnc(NS(=O)(=O)c2ccc(NC(=O)C34CC5CC(CC(C5)C3)C4)cc2)n1 | 1%
CCOC(=O)c1c(NC(=O)CSc2nc3ccccc3o2)sc(C(C)=O)c1C | ?
COc1ccccc1NC(=O)CSc1nnnn1C | -13%
C=CCn1c(=O)n(CCOC)c(=O)c2sc3ccccc3c21 | ?
COc1ccc(CNC(=O)c2noc3c2CCCC3)cc1 | -16%
COc1ccc2oc(C(=O)OCC(=O)NCCN3C(=O)CSC3=O)c(C)c2c1 | ?
Cc1onc(-c2c(F)cccc2Cl)c1C(=O)OCC(=O)Nc1c(C)n(C)n(-c2ccccc2)c1=O | -12%
O=C(CSc1nnc(COc2ccccc2)n1-c1ccccc1)c1ccccc1 | -3%
O=C1NC(c2cc3c(cc2Cl)OCO3)Oc2ccccc21 (configuration not stated) | -23%
O=C(Nc1ccc(O)cc1)/C(=C\c1cccs1)NC(=O)c1ccccc1 | -15%
Cc1cccc(C(=O)NCCNC(=O)c2cccc(C)c2)c1 | 3%
CCCc1nc2ccccc2n1CCOc1ccccc1 | ?
Cn1c2c(c(=O)n(C)c1=O)CN(Cc1ccc(F)cc1)CN2 | 4%
Next compounds:
SMILES | HPGD inh
Cc1ccc(S(=O)(=O)NC(C)C(=O)NC2CCCCCC2)cc1 (configuration not stated) | -18%
C/C(=N\NC(=O)Cc1cccn1C)c1ccc2ccccc2c1 | -18%
COC(=O)C1C(=O)C2=C(CC1C)NC(=O)CC2c1ccccc1 (configuration not stated) | -19%
Cc1nn(C)c(C)c1S(=O)(=O)N1CCC(C(=O)NC2CCCc3ccccc32)CC1 (configuration not stated) | -4%
CCOc1nc(-c2ccccc2)ccc1-c1noc(COC)n1 | ?
O=C(Nc1ccccn1)c1ccc(COc2ccccc2Cl)o1 | -9%
Cc1ccc(CCN2CC(C(=O)NCCCN3CCCCCC3)CC2=O)cc1 (configuration not stated) | -9%
C=CCc1ccccc1OCC(CN1CCCCC1)OC(C)=O (configuration not stated) | -13%
CCCN(CCC)Cc1cc2ccccc2c2c1COC2 | -8%
Nc1ncnc2c1ncn2[C@H]1O[C@@H](CO)[C@@H](O)[C@H]1N | -11%
CCCCC(NS(=O)(=O)c1ccc(C)cc1)C(=O)Oc1ccc2c3c(c(=O)oc2c1)CCC3 (configuration not stated) | -8%
COC(=O)CSc1nnc(C)c(=O)[nH]1 | 0%
CC1=N/C(=C\c2ccc([N+](=O)[O-])cc2)C(=O)N1c1ccc(Cl)cc1 | -13%
O=c1c2ccccc2nc(SCc2cc(=O)n3ccsc3n2)n1CCCO | -13%
O=C(Nc1nccs1)C1CCN(S(=O)(=O)c2ccc3c(c2)OCCCO3)CC1 | -10%
Cn1c(NCc2cccnc2)nc2c1c(=O)n(Cc1ccccc1F)c(=O)n2C | -8%
Cc1cc(C(=O)COc2ccc(-c3nnco3)cc2)c(C)n1Cc1ccccc1 | -17%
COc1ccc(/C=N\N=C2/SC(CC(=O)O)C(=O)N2c2ccc(O)cc2)cc1OC (configuration not stated) | -10%
c1ccc(Cn2nnnc2C(c2cccs2)N2CCSCC2)cc1 (configuration not stated) | -13%
c1ccc2c(c1)nc(N1CCN(C3CCCCC3)CC1)c1nnnn12 | -16%
CCc1ccc2c(c1)C(c1ccc([N+](=O)[O-])cc1)=NNC(c1ccc(Br)cc1)=N2 | -15%
COc1ccc(S(=O)(=O)N(c2onc(C)c2Cl)S(=O)(=O)c2ccc(OC)c(OC)c2)cc1OC | 0%
CC(C)OCCCNc1nc2c(-c3ccccc3)nnn2c2ccccc12 | ?
O=C(Cc1ccsc1)NCC(c1ccco1)N1CCCCC1 (configuration not stated) | -10%
COc1ccc(-n2cnnc2)cc1 | -9%
CC(NC(=O)Cn1nc(-c2ccccc2)c2ccccc2c1=O)c1ccccc1 (configuration not stated) | -11%
CC1CCCCN1S(=O)(=O)c1ccc(S(=O)(=O)NCCc2ccncc2)cc1 (configuration not stated) | 1%
Cc1ccc(NC(=O)COc2ccccc2C(=O)Nc2ccccc2)cc1Cl | -18%
O=C(CN(c1ccc(F)cc1)S(=O)(=O)c1ccc2c(c1)OCCO2)NCc1ccccn1 | -5%
CCCCNc1nc(C)nc2c1nc(-c1ccccc1)n2CCN1CCCC1 | ?
CCc1ccccc1N(CC)C(=O)c1cn(C)c(=O)c2cc(OC)c(OC)cc12 | 5%
CCS(=O)(=O)n1nc(-c2ccc(Cl)cc2)nc1SC | 13µM*
CCCCOCCCNS(=O)(=O)c1ccccc1 | -6%
C1CCN2CC3CC(CN4CCCC[C@@H]34)C2C1 (some centres not stated) | -10%
Cc1c(C(=O)N2CC(C)OC(C)C2)sc2nc(-c3ccccc3)cn12 (configuration not stated) | ?
Cc1[nH]c(=S)n(CC2CCCO2)c1C (configuration not stated) | -1%
O=S(=O)(c1ccc2c(c1)nc(COc1ccc(Cl)cc1)n2CC1CCCO1)N1CCOCC1 (configuration not stated) | -7%
CCC1=C2CC[C@H]3C(=O)N(CC(=O)OC)C(=O)[C@H]3[C@H]2[C@@]2(C)C(=O)N(CC3CC3)C(=O)N2C1=O | -5%
CC(=O)Nc1ccc(NC(=O)C(C)O/N=C/c2cccc([N+](=O)[O-])c2)cc1 (configuration not stated) | -2%
Cc1ccc(C(=O)c2no[n+]([O-])c2C(=O)c2ccc(C)cc2)cc1 | 20µM*
COc1ccc(Cn2nnnc2C(c2cccnc2)N2CCN(c3ccc(O)cc3)CC2)cc1 (configuration not stated) | -2%
O=C(C1CCCN(S(=O)(=O)c2cccnc2)C1)N1CCN(c2ccccn2)CC1 (configuration not stated) | -19%
CSCCC(NC(=O)c1ccc(C)o1)C(=O)O (configuration not stated) | -11%
NC(=O)C1CCN(C(=O)c2ccco2)CC1 | -8%
COc1ccc2c(c1)C1=NN(/C(C)=C/C(C)=O)C(c3ccc(F)cc3)C1CC2 (configuration not stated) | -8%
COc1ccc(NCc2nnc(SCC(=O)NCc3ccccc3)n2-c2ccccc2OC)cc1 | 2%
CC(C)c1onc(C(=O)N2CCN(Cc3ccccc3)CC2)c1[N+](=O)[O-] | -8%
O[C@H](CN1CCN(c2cccc(Cl)c2)CC1)C(c1ccccc1)c1ccccc1 | -9%
COC(=O)c1ccc(NC(=O)CSCc2ccc(C)cc2)cc1 | -10%
Cc1ccccc1-c1cncnc1NCCN1CCOCC1 | -4%
Cc1cc(C(=O)O)c(CSCc2cc(C(=O)O)oc2C)o1 | -5%
Cc1cccc(NC(=O)C2SC(=Nc3c(C)cccc3C)C(C(=O)N3CCOCC3)=C2N)c1 (configuration not stated) | 1%
Cn1cc(/C=C2/SC(=O)N(c3ccccc3)C2=O)c2ccccc21 | -9%
CC(C)Cn1nc(NS(=O)(=O)c2ccccc2)c2cc3ccccc3nc21 | -4%
O=C(Nc1cccc2c1[nH]c1ccccc12)C(F)(F)F | -13%
CCCNS(=O)(=O)c1ccc(OCC(=O)NCCCOC)cc1 | 2%
CCC(=O)N1CCN(c2ccc(NC(=O)c3ccc4c(c3)OCO4)cc2)CC1 | -20%
COc1cc2ccccc2cc1C(=O)Nc1cccnc1 | -8%

5 entries drawn at random from those above, as already listed:
SMILES | HPGD inh
O[C@H](CN1CCN(c2cccc(Cl)c2)CC1)C(c1ccccc1)c1ccccc1 | -9%
Cn1cc(/C=C2/SC(=O)N(c3ccccc3)C2=O)c2ccccc21 | -9%
Cc1cccc(NC(=O)C2SC(=Nc3c(C)cccc3C)C(C(=O)N3CCOCC3)=C2N)c1 (configuration not stated) | 1%
CC(C)c1onc(C(=O)N2CCN(Cc3ccccc3)CC2)c1[N+](=O)[O-] | -8%
CC(C)Cn1nc(NS(=O)(=O)c2ccccc2)c2cc3ccccc3nc21 | -4%

Structures above that have a Cl atom, in the order listed:
SMILES | HPGD inh
CC(/C=C1\N=C(SCc2ccccc2Cl)SC1=O)=C\c1ccccc1 | -16%
Cc1ccc(NC2=C(Cl)C(=O)OC2OC(=O)c2ccco2)cc1 (configuration not stated) | -11%
CCCCn1cnc2c(cnn2-c2ccc(Cl)cc2)c1=O | -22%
O=C(COc1ccc(Cl)cc1Cl)NC(=S)N1CCCc2ccccc21 | 22µM*
COc1ccc(NC(=O)/C=C/C(=O)O)cc1Cl | -17%
Cc1c(/C=N/NC(=O)C(C)(C)Oc2ccc(Cl)cc2)cnn1C | 0%
Cc1onc(-c2c(F)cccc2Cl)c1C(=O)OCC(=O)Nc1c(C)n(C)n(-c2ccccc2)c1=O | -12%
O=C1NC(c2cc3c(cc2Cl)OCO3)Oc2ccccc21 (configuration not stated) | -23%
O=C(Nc1ccccn1)c1ccc(COc2ccccc2Cl)o1 | -9%
CC1=N/C(=C\c2ccc([N+](=O)[O-])cc2)C(=O)N1c1ccc(Cl)cc1 | -13%
COc1ccc(S(=O)(=O)N(c2onc(C)c2Cl)S(=O)(=O)c2ccc(OC)c(OC)c2)cc1OC | 0%
Cc1ccc(NC(=O)COc2ccccc2C(=O)Nc2ccccc2)cc1Cl | -18%
CCS(=O)(=O)n1nc(-c2ccc(Cl)cc2)nc1SC | 13µM*
O=S(=O)(c1ccc2c(c1)nc(COc1ccc(Cl)cc1)n2CC1CCCO1)N1CCOCC1 (configuration not stated) | -7%
O[C@H](CN1CCN(c2cccc(Cl)c2)CC1)C(c1ccccc1)c1ccccc1 | -9%

Screens (PubChem BioAssay)

Not all compounds are listed; count on the stated rates, not on these rows.
